Sfp inh = qHTS Assay for Inhibitors of Bacillus subtilis Sfp phosphopantetheinyl transferase (PPTase); Biochemical Sfp PPTase activity, qHTS; Potency, µM, for inactives: max response, negative = inhibition, usual class: inhibitors; hit rate 3.5% among 310,000; AID 1490, 2009; active = well fitted inhibition curve with a large enough effect; inconclusive = small, poorly fitted or top-dose-only effect, or another doubt; inactive = no such curve, though single readings can be large or run the other way;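 note: the enzyme is Sfp with the accession as filed and its product quenches rhodamine fluorescence; potency is the fitted concentration of half-maximal effect; 0% = enzyme reaction without inhibitor and -100% = no enzyme wells; top concentration of the series not given in the record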
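Fluorescence-quenching assay: 15 nM Sfp-PPTase preincubated 15 min at room temperature with compound, then 5 uM rhodamine-CoA and 12.5 uM BHQ-2-labelled YbbR peptide added. Fluorescence (ex 525/em 598 nm) read at start and after 30 min; difference gives rate.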
PINK1 modulator = A Quantitative High throughput Screen to Identify Chemical Modulators of PINK1 Expression; PINK1 immunofluorescence, high-content cytometry, 24 h; hit rate 0.2% among 410,000; Potency, µM (series often up to 76.6 µM), inactives show top-dose activation (PINK1 increase), hits mostly activators; AID 624263, 2012; active = well fitted activation curve with a large enough effect; inconclusive = small, poorly fitted or top-dose-only effect; inactive = flat fitted curve, though single readings scatter; cell line not stated here;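 note: potency is the fitted concentration of half-maximal effect; % of control where 0% means no effect; nearly all actives have a fitted effect of over 65% in size; a mitochondrial uncoupler was the plate control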
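Compound titrations (5 concentrations, 24 h) on a stable cell line; DMSO and CCCP controls. Endpoint: fixed-cell PINK1 immunofluorescence with mitochondrial, cell and nuclear markers, scanned by microplate cytometer.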
TRPML1 agonist = qHTS for Agonists of the Human Mucolipin Transient Receptor Potential 1 (TRPML1); Mucolipin-1 (Homo sapiens), Q9GZU1; TRPML1-expressing cells, Ca2+ dye fluorescence, FDSS; host cell line not named in the record; reference of the full effect not given here; activation, % (concentration not given with the values); hit rate 0.12% among 410,000; AID 624414, 2012; in the data active = activation above about 50%; inconclusive = about 30% to 50%; inactive = below about 30%; note: 0% is about no effect; the text of the record puts the active cut at 80%
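Agonist activity was taken from a 110 s kinetic Ca2+ dye read on the FDSS after pinning compounds onto TRPML1-DL cells. The cells were seeded at 1,500/well with Tet inducer, incubated about 16 h, then dye-loaded at room temperature.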
TRPV1 potentiator = HTS Assay for Compounds that Act as Potentiators of the Vanilloid Receptor 1 | TRPV1-expressing cells, Fluo-8 calcium influx, capsaicin EC20 potentiation; host cell line not named in the record; control for the full effect not named in the record | potentiation, % at 8.33 µM | hit rate 0.02% among 320,000; active means potentiation above 80%; inconclusive means 30% to 80%; inactive means below 30%; note: 0% is about no effect
Target sequence (Q8NER1 whole entry, looked up): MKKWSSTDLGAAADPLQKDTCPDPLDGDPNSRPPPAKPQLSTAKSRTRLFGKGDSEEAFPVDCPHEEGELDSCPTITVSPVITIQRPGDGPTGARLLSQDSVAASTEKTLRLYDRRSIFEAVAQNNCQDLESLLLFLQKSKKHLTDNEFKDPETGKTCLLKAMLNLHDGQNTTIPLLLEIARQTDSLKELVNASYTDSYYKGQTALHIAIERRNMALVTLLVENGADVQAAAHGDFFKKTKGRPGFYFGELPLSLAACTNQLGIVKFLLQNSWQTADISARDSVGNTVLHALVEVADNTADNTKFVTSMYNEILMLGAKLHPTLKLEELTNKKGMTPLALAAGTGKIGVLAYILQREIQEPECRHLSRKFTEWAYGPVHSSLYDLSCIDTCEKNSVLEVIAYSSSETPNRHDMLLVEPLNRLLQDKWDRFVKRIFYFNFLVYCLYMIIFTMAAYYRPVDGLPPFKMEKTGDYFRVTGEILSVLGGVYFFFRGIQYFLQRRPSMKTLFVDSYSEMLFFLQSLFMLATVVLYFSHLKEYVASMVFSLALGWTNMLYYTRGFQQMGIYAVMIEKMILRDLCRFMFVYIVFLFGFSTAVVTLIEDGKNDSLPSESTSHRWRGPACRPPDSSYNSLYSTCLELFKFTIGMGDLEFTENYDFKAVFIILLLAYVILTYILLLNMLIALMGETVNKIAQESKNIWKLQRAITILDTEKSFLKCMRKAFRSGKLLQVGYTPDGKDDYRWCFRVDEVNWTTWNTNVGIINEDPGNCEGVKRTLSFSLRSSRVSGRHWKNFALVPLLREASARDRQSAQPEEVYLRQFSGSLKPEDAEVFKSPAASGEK
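TRPV1-expressing cells were cultured overnight at 35.5C and loaded with Fluo-8 calcium dye for 40 to 90 min at room temperature. After a 10 s baseline, compound was added and calcium influx was read kinetically for 3 min (ex 480/em 520 nm).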
TRPML1 blocker = qHTS for Inhibitors of the Human Mucolipin Transient Receptor Potential 1 (TRPML1); Mucolipin-1 (Homo sapiens), Q9GZU1; TRPML1-inducible cells, Ca2+ dye fluorescence, FDSS; stronger effect = lower value; inhibition of EC80 agonist-evoked calcium signal; activity change, negative = inhibition, % (no concentration beside the values); hit rate 0.02% among 390,000; in the data active means activity change below about -50%; inconclusive means about -30% to -50%; inactive means above about -30%;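 note: stimulus is agonist 54-4 at its EC80 concentration; % is set by controls: 0 for no effect and ±100 for the full control effect; compound concentration not given in the record; the text of the record puts the active cut at -80%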
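Tet-induced TRPML1-DL cells loaded with Ca8 no-wash calcium dye were read kinetically on FDSS. Compound addition was followed by EC80 agonist 54-4 (4 uM final); inhibition was read over 110 s.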
ClpP mod = qHTS Assay for Activators of ClpP; ATP-dependent Clp protease proteolytic subunit (Bacillus subtilis (strain 168)), P80244; purified B. subtilis ClpP, FRET peptide cleavage, 20 min; Potency, µM (titrated, usually from 57.5 µM), without a hit: top-dose activity change, negative = active; hit rate 1.9% among 340,000; active = well fitted falling curve with a large enough effect; inconclusive = small, poorly fitted or top-dose-only effect; inactive = no such curve, though single readings can be large or run the other way; note: potency is the fitted concentration of half-maximal effect; the source files actives as falling curves though it sought activators and does not explain the sign; nearly all actives have a fitted effect of over 65% in size; many hits overshoot -100%
Target sequence (P80244 whole entry, looked up): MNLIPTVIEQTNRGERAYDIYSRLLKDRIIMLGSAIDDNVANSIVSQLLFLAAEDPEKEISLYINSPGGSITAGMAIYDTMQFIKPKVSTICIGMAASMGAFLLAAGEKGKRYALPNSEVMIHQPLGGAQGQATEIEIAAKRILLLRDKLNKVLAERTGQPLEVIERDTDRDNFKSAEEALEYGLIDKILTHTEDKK
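Buffer: 100 mM Tris/HCl pH8, 100 mM KCl, 0.05% low protease BSA, 2.5% glycerol, 0.01% Tween-20. ClpP 10 microg/mL final; 20 min RT; delta FRET normalized to ADEP and DMSO controls.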
Menin MLL FP FL = qHTS Assay for Inhibitors Targeting the Menin-MLL Interaction in MLL Related Leukemias: Competition With Fluorescein Labeled MLL-derived Peptide. Fluorescence polarization, fluorescein-MLL peptide displacement from menin. 290,000 tested, under 10 active. FP activity change, % at 61.4 µM; inconclusive = falling polarisation curve, or a change in total fluorescence; inactive = total fluorescence flat and polarisation flat or rising; no compound was filed as active; the % refers to the polarisation; negative = inhibition;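 note: % of control where 0% means no effect; inhibitors lower the polarisation; unlabelled MLL peptide was the positive control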
The depositor's hits bear a star; & = joins results of further samples; [ ] = dose if it differs, or a comment. These rows are one share of the data; count on the stated rates, not on these rows.

CCOc1ccc(-n2c(O)c(C=NCCN(CC)CC)c(=O)[nH]c2=O)cc1 was read as Sfp inh 0.0%, PINK1 modulator 1.8%, TRPML1 agonist 0.3, TRPV1 potentiator 3.1, TRPML1 blocker -3.8, ClpP mod -1.1% and Menin MLL FP FL inconclusive.
For Cc1cccc(C)c1-n1nnnc1C(c1cc2ccccc2o1)N1CCC(n2c(=O)[nH]c3ccccc32)CC1 (stereo not drawn) the results were PINK1 modulator 14.8%, TRPML1 agonist 0.0 and ClpP mod 1.5%.
OC12Oc3ccccc3C=C1N1CCC2CC1 (stereo not drawn) was read as Sfp inh 13.7%, PINK1 modulator 7.9%, TRPML1 agonist -0.3, TRPV1 potentiator -18.4, TRPML1 blocker -19.3, ClpP mod 1.0% and Menin MLL FP FL 1.7.
`C=C1C/C(=C/C)C(=O)O[C@@H]2CCN3CC=C(COC(=O)[C@]1(C)O)[C@@H]23` gave Sfp inh 0.7%&8.3%, TRPML1 agonist -0.1, TRPML1 blocker -0.7 and Menin MLL FP FL 0.2&-2.1.
`CN1CCN(C(=O)OC2c3nccnc3C(=O)N2c2ccc(Cl)cn2)CC1` (stereo not drawn) gave Sfp inh 0.6%&19.7%&29.2%, PINK1 modulator 0.0%, TRPV1 potentiator -1.4 and Menin MLL FP FL 2.7&4.5.
Screening Cc1cccc(C#N)c1 returned PINK1 modulator 0.8%, TRPML1 agonist 0.1, TRPV1 potentiator -0.9, TRPML1 blocker -3.9 and ClpP mod 1.9%.
For COc1cccc(C(=O)C2CCCN(Cc3ccc4nsnc4c3)C2)c1 (stereo not drawn) the results were Sfp inh -4.0%, PINK1 modulator 1.9%, TRPML1 agonist 1.8, TRPV1 potentiator -6.4, TRPML1 blocker -0.2 and Menin MLL FP FL 2.2.
For ON1C2CCCCC2N(O)C1c1ccccc1 (stereo not drawn) the results were Sfp inh inconclusive, TRPML1 agonist -0.5, TRPV1 potentiator inconclusive, TRPML1 blocker 0.3, ClpP mod -0.2% and Menin MLL FP FL 5.4.
`COc1cccc(C(=O)C2CCCN(Cc3ccc(F)cc3)C2)c1` (stereo not drawn) gave Sfp inh 12.3%, PINK1 modulator 8.5%, TRPML1 agonist 1.3, TRPV1 potentiator -22.0, TRPML1 blocker 20.3 and Menin MLL FP FL 1.1.
CCOC(=O)CNC(=O)N1Cc2ccc(Br)cc2-n2nncc2C1 was read as PINK1 modulator 1.0%, TRPML1 agonist 0.1 and ClpP mod 2.0%.
CN1C(=O)C(Cc2c[nH]c3ccccc23)C(=O)N(C)C1=O was read as Sfp inh 39.8µM*, TRPV1 potentiator 6.6 and Menin MLL FP FL 4.3.
`O=c1c2ccccc2nc(/C=C/c2cccnc2)n1Cc1ccccc1` gave Sfp inh 31.6µM*, PINK1 modulator -0.1%, TRPML1 agonist 0.9, TRPV1 potentiator 1.0, TRPML1 blocker 42.9 and Menin MLL FP FL -0.4.
For CCOC(=O)c1ccc(N=C(c2ccccc2)c2c(O)n(C)c(=O)n(C)c2=O)cc1 the results were Sfp inh inconclusive, PINK1 modulator -0.2%, TRPML1 agonist -0.4, TRPV1 potentiator 5.3, TRPML1 blocker 23.6 and Menin MLL FP FL 5.8.
`CC1CN(O)C2CCc3nonc3C12O` (stereo not drawn) gave Sfp inh -2.4%, PINK1 modulator -1.4%, TRPML1 agonist -0.4, TRPV1 potentiator -13.7, TRPML1 blocker 24.5, ClpP mod -1.0% and Menin MLL FP FL 3.4.
`Cc1oc2cc3oc(=O)c(CCC(=O)N4CCCCC4)c(C)c3cc2c1C` gave PINK1 modulator 0.4%, TRPML1 agonist -1.0, TRPML1 blocker -20.0 and ClpP mod 3.6%.
For c1ccc(N2CC[C@@]3(CCCNC3)C2)nc1 the results were Sfp inh -23.5%, PINK1 modulator -0.1% and Menin MLL FP FL -2.9.
CC(C)c1ccc(OCC(=O)N2CCN(C)CC2)c(Br)c1 was read as Sfp inh 4.8%, PINK1 modulator -1.1%[38.3 µM], TRPML1 agonist 0.8, TRPV1 potentiator -16.0, TRPML1 blocker 22.1, ClpP mod -1.3% and Menin MLL FP FL 0.2.
Screening COc1ccc(OCC(=O)N2CCN(Cc3c[nH]c4ccccc34)CC2)cc1 returned Sfp inh -14.6%, PINK1 modulator 5.9%, TRPML1 agonist -0.6, TRPV1 potentiator -2.8, TRPML1 blocker 14.3, ClpP mod -0.6% and Menin MLL FP FL 2.7.
CC(=O)OC1C2CCCC1C(N1CCCC1)CC2 (stereo not drawn) was read as Sfp inh -3.9%&4.2%, PINK1 modulator -0.3%&0.8%, TRPML1 agonist 0.9&-0.5, TRPV1 potentiator -5.0&11.4, TRPML1 blocker 30.9&26.0, ClpP mod -0.5%&0.3% and Menin MLL FP FL 0.1&1.5.
For CCOC(=O)[C@]12Cc3ccccc3[C@H]1N(CCC(=O)OC)C(=O)c1cc(OC)ccc12 the results were PINK1 modulator -0.9%, TRPML1 agonist -0.5 and ClpP mod 1.8%.
`COP(=O)(C#Cc1ccccc1)C(O)c1ccc(Br)cc1` (stereo not drawn) gave Sfp inh 11.3%, PINK1 modulator 0.0%, TRPML1 agonist 0.1, TRPV1 potentiator -11.2, TRPML1 blocker 26.4, ClpP mod 0.2% and Menin MLL FP FL 0.4.
For CC(=O)/C=C/c1ccccc1 the results were PINK1 modulator 2.8%, TRPML1 agonist 0.2, TRPML1 blocker 0.5 and ClpP mod -2.1%.
Screening CN1C(=O)c2ccccc2NC(=O)[C@]12O[C@@H]2c1ccccc1 returned Sfp inh 22.9%, PINK1 modulator -0.3%, TRPV1 potentiator inconclusive, ClpP mod -0.4% and Menin MLL FP FL -7.6.
`CN1C(=O)C(=Cc2ccccc2OCc2ccc(C(=O)O)cc2)C(=O)N(C)C1=O` gave Sfp inh -28.0%, PINK1 modulator 3.1%, TRPML1 agonist -0.6, TRPV1 potentiator 0.3, TRPML1 blocker 1.3 and Menin MLL FP FL -3.0.
Screening O=c1[nH]c(=S)[nH]c(O)c1/C=N/N1CCOCC1 returned Sfp inh inconclusive, PINK1 modulator -0.1%, TRPML1 agonist -0.2, TRPV1 potentiator 9.7, TRPML1 blocker 7.7, ClpP mod 1.7% and Menin MLL FP FL 2.4.
Screening CCc1ccc(-c2nn(Cc3ccccc3)cc2C=O)cc1 returned Sfp inh 15.6%, PINK1 modulator 12.4%, TRPML1 agonist 0.9, TRPV1 potentiator -12.7, TRPML1 blocker -8.6 and Menin MLL FP FL 3.2.
For O=[N+]([O-])c1ccc(CN2CC=C(c3ccccc3)CC2)cc1 the results were Sfp inh 1.4%, PINK1 modulator 0.5%, TRPML1 agonist -0.6, TRPV1 potentiator -8.4, TRPML1 blocker 20.3 and Menin MLL FP FL -2.7.
COc1cc2c(c(OC)c1OC)-c1ccc(O)c(=O)cc1[C@@H](N)CC2 was read as PINK1 modulator 21.1%, TRPML1 agonist 0.0, TRPV1 potentiator -27.4, TRPML1 blocker 4.8 and ClpP mod -0.5%.
`CN1CC[C@@]2(CCCN(C(=O)c3ccco3)C2)C1` gave Sfp inh 9.8%, PINK1 modulator -0.2% and Menin MLL FP FL 2.7.
CCN(CC)c1ccc(CNCCc2ccc(F)cc2)cc1 was read as Sfp inh 2.5%, PINK1 modulator 8.4%, TRPML1 agonist -0.7, TRPV1 potentiator 0.4, TRPML1 blocker -12.0 and Menin MLL FP FL 2.8.
CC1CCCC(C2(O)C(=O)Nc3ccccc32)C1=O (stereo not drawn) was read as Sfp inh -11.9%, PINK1 modulator -1.0%, TRPML1 agonist -0.3, TRPV1 potentiator 5.3, TRPML1 blocker 0.4, ClpP mod -2.2% and Menin MLL FP FL -1.1.
Screening C[C@H](CCC(=O)O)[C@H]1CC[C@H]2[C@@H]3C(=O)C[C@@H]4CC(=O)CC[C@]4(C)[C@H]3CC(=O)[C@]12C returned Sfp inh inconclusive, PINK1 modulator 2.6%, TRPML1 agonist -0.8, TRPV1 potentiator 9.8, TRPML1 blocker 9.1, ClpP mod -0.2% and Menin MLL FP FL -1.2.
C=CCn1c(O)c(C(C)=NCC2CCCO2)c(=O)[nH]c1=O (stereo not drawn) was read as Sfp inh 7.7%, PINK1 modulator 0.1%, TRPML1 agonist -0.3, TRPV1 potentiator -5.1, TRPML1 blocker -14.3 and Menin MLL FP FL -0.5.
Cc1cc(OCC(=O)NC(Cc2ccc(Cl)cc2)C(=O)O)c2c3c(c(=O)oc2c1)CCC3 (stereo not drawn) was read as Sfp inh 14.2%, PINK1 modulator 1.2%, TRPV1 potentiator -1.3, ClpP mod 4.1% and Menin MLL FP FL -3.6.
`CCOC(=O)[C@@]1(C#N)C(c2ccc(Cl)c(Cl)c2)[C@H](C(N)=O)N2C=C(C(C)=O)C=C[C@H]21` (stereo partly drawn) gave Sfp inh -14.3%, PINK1 modulator 2.2%, TRPML1 agonist 0.7, TRPV1 potentiator 13.1, TRPML1 blocker 1.8, ClpP mod -1.3% and Menin MLL FP FL inconclusive.
Screening CCn1ccnc1CN1CCCC(C(=O)c2ccc(SC)cc2)C1 (stereo not drawn) returned Sfp inh 8.0%, PINK1 modulator -1.0%, TRPML1 agonist 0.5, TRPV1 potentiator 7.1, TRPML1 blocker -1.1 and Menin MLL FP FL -5.1.
O=C1NCN(c2ccccc2)C12CCN(C(c1nnnn1Cc1ccccc1)C1CC1)CC2 (stereo not drawn) was read as PINK1 modulator 0.7%, TRPML1 agonist -0.1 and ClpP mod -0.2%.

Grouped by structure: the compounds so far containing fluorine.
`COc1cccc(C(=O)C2CCCN(Cc3ccc(F)cc3)C2)c1` (stereo not drawn) gave Sfp inh 12.3%, PINK1 modulator 8.5%, TRPML1 agonist 1.3, TRPV1 potentiator -22.0, TRPML1 blocker 20.3 and Menin MLL FP FL 1.1.
CCN(CC)c1ccc(CNCCc2ccc(F)cc2)cc1 was read as Sfp inh 2.5%, PINK1 modulator 8.4%, TRPML1 agonist -0.7, TRPV1 potentiator 0.4, TRPML1 blocker -12.0 and Menin MLL FP FL 2.8.

Bioassay records deposited in PubChem by National Center for Advancing Translational Sciences (NCATS).
